BJeLR viability – kills HRASV12-expressing BJeLR cells | BJeLR (HRASV12) viability, CellTiter-Glo ATP luminescence, 48 h; reference of the scale not given here | inhibition, % (test concentration not listed) | 0.17% of 300,000 active | AID 1554;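 active means replicate mean above 50%; inconclusive means above 50% but judged a plate artefact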;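 further: 50 nL library stock added to about 25 µL; numbers are from one replicate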
Bead autofluor – compound fluorescence in toxin protease inhibitor counterscreen. 3.1% of 360,000 active. compound autofluorescence counterscreen, microsphere flow cytometry; active compounds read high. AID 624483. fluorescence intensity (test concentration not listed);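 active means at least 3 SD above the mean of all compounds, about 16000 in these data; inconclusive means too few beads counted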;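 further: 100 nL of 1 mM stock went into each well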
Sa ugtP lethal – compounds lethal to S. aureus RN4220 ugtP deletion mutant | growth inhibition, % (test concentration not listed) | OD600 growth, 16 h; some inactives read as strong as hits | 0.54% of 330,000 active | AID 1259309;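 active means z-score under -3 and OD600 up to 0.15 on both plates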;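 further: plate controls were untreated wells for no effect and antibiotic for full effect; wells of about 80 µL received 100 nL stock; the first replicate is given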
PrP 5UTR inh – inhibition of PrP 5' UTR reporter expression | cell-based PrP 5' UTR mRNA reporter, plate reader | 0.35% of 340,000 active | AID 488862 | inhibition, % (concentration not given with the values);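 active means every replicate at 50% or more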;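 further: 0 = median of the neutral control wells; tested in H4 reporter cells; numbers are from one replicate; inactives centre near -14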
Sa RN4220 lethal – S. aureus RN4220 growth inhibition. 0.33% of 330,000 active. inhibition, % (concentration not given with the values). OD600, 16 h. AID 1259311;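 active means z-score of -3 or lower and OD600 up to 0.18 on both plates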;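 further: plate controls were untreated cells for no effect and reference antibiotic for full effect; stock transfer was 100 nL into about 80 µL; one replicate is shown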
Mtb hypoxia rep – Mtb hypoxia fluorescent reporter inhibition; M. tuberculosis hypoxia-regulated fluorescent reporter, fluorescence; AID 1159583; fluorescence inhibition, % (no concentration beside the values); 0.1% of 300,000 active;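 active means 35 to 45% if threefold the growth effect, above 45% if 1.5-fold the growth effect; inactive means the rest, general growth blockers included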;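 further: wells of about 50 µL received 100 nL stock; 0% = vehicle wells and 100% = reference inhibitor wells; whole bacteria with a GFP reporter of the hypoxia response; strong numbers were not always called active; many hits fall short of the cut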
Mtb hypoxia rep growth – recorded beside Mtb hypoxia rep, whose call it bears; growth inhibition, %; measured here: M. tuberculosis growth (absorbance);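 0% = vehicle and 100% = reference antibiotic; read after six days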
Numbers without * were called inactive; u = inconclusive; x = no result given.

SMILES	BJeLR viability	Bead autofluor	Sa ugtP lethal	PrP 5UTR inh	Sa RN4220 lethal	Mtb hypoxia rep	Mtb hypoxia rep growth
COc1ccc2cc3c(N)nn(C(=O)c4cccc([N+](=O)[O-])c4)c3nc2c1	1.5	2451	-0.6	15.3	4.7	6.7	7.0
CCc1nnc(NC(=O)CN2CCN(Cc3ccc(F)cc3)CC2)s1	1.8	3696	2.7	-14.7	0.8	4.1	-2.5
Cc1cc(-c2nnc(CCC(=O)NC(c3ccccc3)c3ccccc3)o2)no1	1.2	4829	3.8	-19.3	1.0	12.5	6.8
O=C1C2C3C=CC(CC3)C2C(=O)N1/N=C/c1c(O)ccc2ccccc12 (configuration not stated)	-4.9	3381	x	-2.2	x	x	x
CCOCCCNC(=O)c1ccc(C2SCC(=O)N2Cc2ccccc2)cc1 (configuration not stated)	-5.9	3924	6.8	-31.9	4.2	0.1	9.5
CON=C(CNC(=O)c1cccc(Cl)c1)c1ccc(Cl)cc1	x	x	0.9	x	-15.9	-5.6	-5.6
Cc1ccc(S(=O)(=O)N(C)C)cc1NC(=O)CCCNC(=O)c1ccc(Cl)cc1	-7.0	4343	-1.0	-15.9	2.7	8.1	-7.8
CC=C(C)C(=O)NCCN1C2=NCC(C(C)C)N2CC1Cc1ccc(O)cc1 (configuration not stated)	x	x	1.8	x	5.2	6.5	7.2
CCOC(=O)C(C#N)=NNc1ccc(S(=O)(=O)N2CCc3ccccc32)cc1	x	x	-1.9	x	14.3	10.5	8.0
CCCS(=O)(=O)N1CCN(S(=O)(=O)c2ccccc2)CC1	-0.9	6789	3.5	-8.6	1.5	9.2	9.2
COc1ccc(OC)c(NP(=O)(Oc2ccc(Cl)cc2)Oc2ccc(Cl)cc2)c1	3.2	10610	-0.8	-12.8	4.4	9.3	7.8
Cc1ccc(OCCn2c(=O)n(C)c3ccccc32)cc1	2.7	4619	-2.1	-63.4	1.4	5.3	5.6
CCCn1c2ccccc2c2cnn(CC(=O)NC3CCCCC3C)c(=O)c21 (configuration not stated)	-12.2	5318	3.2	-21.5	3.1	2.0	-6.5
CCOC(=O)C1(Cc2cccc(Cl)c2)CCCN(C(=O)c2c(CC)noc2C)C1 (configuration not stated)	9.5	4951	6.8	-18.2	8.5	-2.5	-8.3
Cc1ccc(C(=O)NN=C/C=C/c2ccccc2)o1	x	x	6.0	x	-2.4	11.1	-0.6
Cc1csc2c(SCC(=O)NNS(=O)(=O)c3cccc(C(F)(F)F)c3)ncnc12	-6.6	3865	-7.6	-4.2	7.2	5.7	-7.4
O=[N+]([O-])c1ccc(CSc2nnc(Cc3ccccc3)n2-c2ccc(F)cc2)cc1	-1.1	2087	-21.4	-14.4	7.1	-6.4	-0.7
Cn1cnc([N+](=O)[O-])c1S(=O)(=O)Oc1ccc(Cl)cc1	x	2911	42.6	-13.8	34.2	x	x
CN(C(=O)CN1C(=O)S/C(=C\c2cccc(Cl)c2)C1=O)C1CCS(=O)(=O)C1 (configuration not stated)	1.6	4978	1.6	-4.4	3.9	9.2	-3.1
CCOC(=O)n1c(=O)n(Cc2cccc(F)c2)c2ccccc21	3.1	3129	7.5	-18.6	2.3	6.5	-3.8
C/C(=N\OCC(=O)Nc1ccc2c(c1)OCCO2)c1ccc2c(c1)OCCO2	-3.5	7427	x	-4.3	x	x	x
O=S(=O)(c1ccc(F)cc1)N1CCCNCC1	-12.8	3534	3.5	-31.7	0.0	-0.5	-1.1
CCOC(=O)c1c(C)nc2c(c1-c1ccc(OC)c(OC)c1)C(=O)c1ccccc1-2	3.1	12571	3.3	-13.6	1.4	5.3	-6.3
CCOC(=O)C1=C(C)NC(C)=C(C(=O)OCC)C1C(=O)OCC(=O)N(C)C1CCS(=O)(=O)C1 (configuration not stated)	1.9	3297	3.8	-8.4	5.0	15.8	5.2
Cc1cccc(C(=O)NNC(=O)c2ccccc2[N+](=O)[O-])c1	0.5	3086	16.8	8.7	7.3	0.5	-8.9
CCc1nnc(NN=Cc2ccc(N3CCC(C)CC3)c([N+](=O)[O-])c2)n1N	x	x	2.8	x	1.0	15.4	8.7
CC(Sc1nc(N)c(NC(=O)c2ccc(Br)o2)c(=O)[nH]1)C(=O)O (configuration not stated)	6.7	5775	-5.7	-13.6	5.3	3.6	0.9
Cc1sc(NC(=O)c2cccnc2)nc1-c1ccccc1	18.7	4353	8.4	-2.5	2.4	6.2	5.0
CCOC(=O)CSc1nnc(CNC(=O)c2cccc(C)c2)n1C	4.7	3730	17.9	-27.8	2.3	7.2	4.2
CCn1ncc(C=NNC(=O)c2cc(Cl)ccc2OC)c1C	x	x	5.5	x	2.4	6.6	12.4
COc1ccc(S(=O)(=O)N2CCC(C(=O)Nc3nccs3)CC2)cc1	-7.5	5854	-3.1	-7.5	1.2	8.9	14.8
Cn1c(=O)c2c(nc(Br)n2CCSc2nc3ccccc3o2)n(C)c1=O	x	20887*	-6.7	-26.1	8.3	-1.7	8.6
CCc1nccn1CCC(=O)N1CCCC(N2CCN(c3ccccc3F)CC2)C1 (configuration not stated)	6.6	5762	3.8	2.3	-1.0	6.2	6.4
COc1ccc(-c2csc3[nH]c(=S)n(-c4ccccc4)c(=O)c23)cc1OC	3.1	2005	-0.9	-32.4	2.2	4.5	12.5
CCCCCC(=O)Nc1cc(N(C)C)nc2ccccc12	8.5	17328*	-7.2	-29.1	5.6	5.9	7.4
CC(C)OCCCNC(=O)CN1C(=O)CC(C)(C)S(=O)(=O)c2ccccc21	6.7	5534	8.0	4.8	-0.1	x	x
N#C/C(=C\c1ccccc1)C(=O)NCCN1CCOCC1	-2.7	4272	12.7	-13.4	1.6	1.5	8.5
Cn1c2ccccc2c2cc(/C=N/NC(=O)c3cc(O)ccc3O)ccc21	-15.8	5856	x	4.8	x	x	x
O=C(Nc1nccs1)C1CC(=O)N(c2ccccc2)C1 (configuration not stated)	-9.5	5300	0.4	-14.8	5.4	-3.2	-0.3
Cc1cc(-c2nnnn2-c2ccc(C(F)(F)F)cc2)no1	-6.5	3748	-0.5	3.1	1.5	-3.2	-5.0
CCC(C)NC(=O)c1ccc(NC(=O)CC2SC(N3CCCCC3)=NC2=O)cc1 (configuration not stated)	x	8573	-1.0	-6.2	1.1	-1.3	-1.7
CN(C(=O)C1CCCN(S(=O)(=O)c2cccc([N+](=O)[O-])c2)C1)C1CCS(=O)(=O)C1 (configuration not stated)	-0.3	4018	-3.0	-19.6	0.9	-4.6	15.8
COc1ccc(S(=O)(=O)N2CCN(C(=O)/C=C/c3ccco3)CC2)cc1	x	6303	-7.1	-5.3	0.9	-0.6	6.4
COc1cc(NC(=O)Cn2ccsc2=N)c(C)cc1[N+](=O)[O-]	-4.3	4705	4.1	39.7	-2.6	4.6	7.7
O=C(COC(=O)C12CC3CC(CC(C3)C1)C2)N1CCN(S(=O)(=O)c2ccccc2)CC1	9.6	3393	-3.5	-10.7	-3.0	5.5	-0.2
CN(C)CCN(C(=O)c1cccc2ccccc12)c1nc2cc3c(cc2s1)OCO3	-6.7	x	1.2	-9.6	-6.2	3.5	2.9
COc1ccc(C)c2sc(N(CCCN(C)C)C(=O)c3ccc4c(c3)OCCO4)nc12	13.3	5680	-9.4	-8.0	-2.1	8.4	7.4
CSc1ncc(CO)n1Cc1ccccc1	-6.2	5946	2.7	-12.2	5.0	-14.4	-8.6
CC1CC(c2ccccc2)n2nc(NC(=O)c3ccco3)nc2N1 (configuration not stated)	8.5	3609	-1.0	-20.1	-0.8	x	x
O=C(O)c1ccccc1C(=O)Nc1ccc(S(=O)(=O)NC2CCCCC2)cc1	-2.4	2186	7.9	-5.8	2.3	5.7	0.6
Cc1cc(C)cc(NC(=O)C2C3C=CC4(O3)C2C(=O)N(CCCN2CCCCC2)C4C(=O)NC2CCCCC2)c1 (configuration not stated)	-1.6	4159	2.8	-11.7	2.5	1.2	-10.3
COc1ccccc1NC(=O)N1CCCC1C(=O)NC1CCCCC1 (configuration not stated)	8.3	7290	3.8	-4.6	1.3	4.0	1.1
CCn1c(C)cc(/C=C2\NC(=O)N(Cc3ccc(Cl)cc3)C2=O)c1C	10.1	8285	-1.3	11.4	1.2	3.0	1.4
COc1ccc(C(=O)NCCc2cc3ccc(C)c(C)c3[nH]c2=O)cc1OC	2.1	2245	1.2	-16.7	0.6	-0.8	6.9
CN(C(=O)COC(=O)CNS(=O)(=O)/C=C/c1ccccc1)C1CCS(=O)(=O)C1 (configuration not stated)	4.2	10516	3.5	-14.8	3.1	-3.5	2.2
COC(=O)C1=C(C)NC(=O)NC1c1ccccc1Cl (configuration not stated)	1.9	2913	-0.6	-7.7	1.1	-2.7	2.5
CC(C)n1cnnc1SCC(=O)Nc1ccc(N2CCCCC2)cc1	-6.0	7220	2.9	-23.4	5.2	-7.0	0.5
CCC(=O)Nc1ccccc1C(=O)OCC(=O)Nc1ccc(S(N)(=O)=O)cc1	5.4	10177	3.6	-22.6	0.5	2.4	0.5
C/C(=N\N(c1ccccc1)c1ccccc1)c1ccc(N)cc1	-6.8	6219	x	-21.1	x	x	x
COc1ccc(NS(=O)(=O)c2ccc(C)c(NC(=O)CNC(=O)c3ccco3)c2)cc1	x	u	6.8	-5.1	2.5	10.1	11.8
Next records:
SMILES	BJeLR viability	Bead autofluor	Sa ugtP lethal	PrP 5UTR inh	Sa RN4220 lethal	Mtb hypoxia rep	Mtb hypoxia rep growth
[O-][n+]1ccccc1/C=C/c1ccccc1	1.1	6207	1.7	-17.0	1.3	16.3	7.0
Cc1cc(Br)ccc1NC(=O)CN(C)C(=O)c1ccc(-n2cncn2)c([N+](=O)[O-])c1	x	2858	3.6	-11.4	0.4	-6.2	-4.1
CC(C)N1C(=O)C2ON(c3ccccc3)C(c3cccs3)C2C1=O (configuration not stated)	-1.3	4672	-5.8	-2.6	10.9	13.1	2.9
CN(Cc1ccno1)Cc1cn(C)nc1-c1ccc(Oc2ccccc2)cc1	5.3	4888	6.1	-10.6	6.7	6.5	2.1

Entries from the list above containing an aryl methoxy group (12):
SMILES	BJeLR viability	Bead autofluor	Sa ugtP lethal	PrP 5UTR inh	Sa RN4220 lethal	Mtb hypoxia rep	Mtb hypoxia rep growth
COc1ccc2cc3c(N)nn(C(=O)c4cccc([N+](=O)[O-])c4)c3nc2c1	1.5	2451	-0.6	15.3	4.7	6.7	7.0
COc1ccc(OC)c(NP(=O)(Oc2ccc(Cl)cc2)Oc2ccc(Cl)cc2)c1	3.2	10610	-0.8	-12.8	4.4	9.3	7.8
CCOC(=O)c1c(C)nc2c(c1-c1ccc(OC)c(OC)c1)C(=O)c1ccccc1-2	3.1	12571	3.3	-13.6	1.4	5.3	-6.3
CCn1ncc(C=NNC(=O)c2cc(Cl)ccc2OC)c1C	x	x	5.5	x	2.4	6.6	12.4
COc1ccc(S(=O)(=O)N2CCC(C(=O)Nc3nccs3)CC2)cc1	-7.5	5854	-3.1	-7.5	1.2	8.9	14.8
COc1ccc(-c2csc3[nH]c(=S)n(-c4ccccc4)c(=O)c23)cc1OC	3.1	2005	-0.9	-32.4	2.2	4.5	12.5
COc1ccc(S(=O)(=O)N2CCN(C(=O)/C=C/c3ccco3)CC2)cc1	x	6303	-7.1	-5.3	0.9	-0.6	6.4
COc1cc(NC(=O)Cn2ccsc2=N)c(C)cc1[N+](=O)[O-]	-4.3	4705	4.1	39.7	-2.6	4.6	7.7
COc1ccc(C)c2sc(N(CCCN(C)C)C(=O)c3ccc4c(c3)OCCO4)nc12	13.3	5680	-9.4	-8.0	-2.1	8.4	7.4
COc1ccccc1NC(=O)N1CCCC1C(=O)NC1CCCCC1 (configuration not stated)	8.3	7290	3.8	-4.6	1.3	4.0	1.1
COc1ccc(C(=O)NCCc2cc3ccc(C)c(C)c3[nH]c2=O)cc1OC	2.1	2245	1.2	-16.7	0.6	-0.8	6.9
COc1ccc(NS(=O)(=O)c2ccc(C)c(NC(=O)CNC(=O)c3ccco3)c2)cc1	x	u	6.8	-5.1	2.5	10.1	11.8
